# Screening results as filed in PubChem BioAssay.
# Rango release inh = inhibition of RanGTP-driven Rango-importin beta dissociation; 340,000 tested, 0.071% active; O95149+P62826; Biochemical FRET Rango-importin beta, RanGTP-induced dissociation; Potency, µM (series often up to 46.1 µM), inactives show at the top dose activity change, negative = inhibition; active means falling FRET ratio curve, often poorly fitted, with flat reads before Ran was added; inconclusive means other falling curves, or compound fluorescence or quenching; inactive means flat or rising ratio curve;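 note: potency is the fitted concentration of half-maximal effect; % of control where 0% means no effect; nearly all actives have a fitted effect of over 45% in size; -100% = wells without RanGTP and RCC1; the record marks most hits as doubtful in a second field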
#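 Rango FRET biosensor (snurportin-1 IBB flanked by N-terminal EYFP and C-terminal CFP10) at 0.1 uM, with 0.25 uM importin beta in PBS, 1mM DTT, 0.02% Tween-20, 0.1% BSA. 0.6 uM Ran, 2mM GTP and 0.2 uM RCC1 were then added for 45 min at room temperature. Inhibition read as loss of FRET rise.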
# miR-21 reporter = miR-21 reporter, rising signal; HeLa miR-21 FLuc reporter, luciferase, 48 h; 340,000 tested, under 10 active; Potency, µM (titrated, usually from 38.3 µM), for the others: at the highest dose reporter change, positive = more light; active = well fitted rising curve with a large enough effect; inconclusive = small, poorly fitted or top-dose-only effect; inactive = no such curve, though single readings can be large or run the other way;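 note: % of control where 0% means no effect; miR-21 action dims this reporter so a rising signal means less miR-21 action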
#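 Compounds were titrated across several concentrations (up to approximately 40 uM) and incubated 48 hours with HeLa miR-21-FLuc reporter cells (miR-21 target sequence downstream of FLuc, endogenous miR-21). Readout was firefly luciferase luminescence after lytic detection reagent.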
# GLA inh pH 4.5 = blocks human alpha-galactosidase A at pH 4.5; purified enzyme, 4-MU-alpha-Gal fluorescence, pH 4.5; 230,000 tested, under 10 active; activity change, negative = inhibition, % at 105 µM; inconclusive = small, poorly fitted or top-dose-only inhibition, or a rising curve; inactive = flat fitted curve, though single readings scatter; no compound was filed as active;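 note: 0% = full activity with enzyme and -100% = basal without enzyme; dose as in the result columns while the protocol names 77 µM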
# Target sequence (P06280 whole entry, looked up): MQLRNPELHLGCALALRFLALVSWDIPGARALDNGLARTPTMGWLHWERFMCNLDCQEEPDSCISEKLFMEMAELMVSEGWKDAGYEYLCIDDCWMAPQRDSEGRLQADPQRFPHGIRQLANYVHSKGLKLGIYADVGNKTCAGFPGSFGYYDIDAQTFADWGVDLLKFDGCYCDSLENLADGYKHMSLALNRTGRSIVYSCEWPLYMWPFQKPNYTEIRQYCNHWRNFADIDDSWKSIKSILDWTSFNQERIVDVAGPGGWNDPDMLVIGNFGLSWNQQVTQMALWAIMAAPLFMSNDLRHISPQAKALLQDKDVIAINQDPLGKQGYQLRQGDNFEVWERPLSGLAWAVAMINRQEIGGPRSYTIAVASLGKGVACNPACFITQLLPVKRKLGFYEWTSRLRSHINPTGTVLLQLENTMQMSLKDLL
# Rango-impB inh = prevents formation of the Rango-importin beta complex; Q14974; Rango CFP/YFP FRET sensor + importin beta, 45 min; Potency, µM (titrated, usually from 92.2 µM), inactives show top-dose inhibition of complex formation; 340,000 tested, 0.031% active; AID 540263; active = rising FRET ratio curve, often small or poorly fitted; inconclusive = mostly compound fluorescence or quenching in the first reads; inactive = flat curves in all reads;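 note: potency is the fitted concentration of half-maximal effect; 0% = DMSO wells and 100% = buffer wells lacking importin beta; nearly all actives have a fitted effect of over 15% in size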
#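 Inhibition scored from the CFP 486 nm/YFP 530 nm FRET ratio 45 min after adding 0.125 microM importin beta to 50 nM Rango biosensor preincubated 5 min with compound (room temperature, PBS with DTT, Tween-20, BSA). No-importin wells as positive control.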
# * = called active by the depositor; ? = inconclusive; . = no result given; & = joins results of further samples.
SMILES,Rango release inh,miR-21 reporter,GLA inh pH 4.5,Rango-impB inh
O=C(c1ccc(Br)s1)N1CCCC1,0.9%,-11.1%,7.5,5.6%
COc1ccccc1C(c1nnnn1C(C)C)N1CCN(C(=O)c2ccco2)CC1 (stereo not given),1.3%,-0.7%,.,0.1%
Cc1cc2c(N3CCCCC3C)ncnc2s1 (stereo not given),-5.1%,2.1%,2.8,2.4%
O=C(NCc1ccco1)c1ccc([N+](=O)[O-])cc1Cl,-9.8%,-2.6%,.,4.3%
CCC1(C(=O)c2ccc(Cl)cc2)C2c3ccccc3OC(=O)C21C(=O)Nc1ccccc1 (stereo not given),-21.7%,-7.4%,0.1,2.0%
COc1cc2oc(=O)cc(-c3ccc(-c4ccc(C#N)cc4)cc3)c2c(OC)c1OC,1.9%,.,-12.6,-0.9%
COc1ccc(/C=C2/SC(=O)N(CC(O)Cn3c4ccccc4c4ccccc43)C2=O)cc1 (stereo not given),-2.6%,8.4%,2.3,?
CC1CCCCN1S(=O)(=O)c1ccc(NC(=O)c2cccc(-n3cnnn3)c2)cc1 (stereo not given),-17.1%,-4.9%,1.1,-1.9%
CC(=O)NCCC(=O)Nc1cc(S(=O)(=O)N2CCCCC2)ccc1Oc1ccccc1,7.5%,-3.9%,.,1.6%
CCC1C(=O)N=C(SCC(=O)NC2CCCCC2)NC1=O (stereo not given),14.1%,6.3%,10.8,0.1%

# Entries of single compounds as entered above. Screens in order: Rango release inh, miR-21 reporter, GLA inh pH 4.5, Rango-impB inh
# CCC1C(=O)N=C(SCC(=O)NC2CCCCC2)NC1=O (stereo not given) as listed: 14.1%, 6.3%, 10.8, 0.1%
# CCC1(C(=O)c2ccc(Cl)cc2)C2c3ccccc3OC(=O)C21C(=O)Nc1ccccc1 (stereo not given) as listed: -21.7%, -7.4%, 0.1, 2.0%

# Other entries:
SMILES,Rango release inh,miR-21 reporter,GLA inh pH 4.5,Rango-impB inh
CCOc1ccccc1NC(=O)C(CC(C)C)NC(=O)C1CCCCC1 (stereo not given),7.9%,-4.8%,-0.6,1.7%
Cc1c(Br)c(C(F)(F)F)nn1CC(=O)NCc1ccccc1,9.5%,-0.4%,2.9,2.7%
CCC1CCc2c(sc(NC(=O)c3cccnc3)c2C(N)=O)C1 (stereo not given),-19.7%,-14.8%,.,?
Cc1ccc(/C=C2/Sc3ccc(C(=O)N4CCN(c5ccccn5)CC4)cc3NC2=O)cc1,1.6%,0.6%,.,-0.4%
CC(=O)c1c(C)n([O-])c2ccccc2[n+]1=O,-7.5%,-1.5%,-1.6,-1.0%
COc1ccc(C(=O)N2CCC2)cc1S(=O)(=O)NCc1ccc(Cl)cc1,0.8%,.,.,0.4%
CCOC(=O)N1CCN(C(=O)c2ccccc2N(C)S(C)(=O)=O)CC1,-9.6%,-4.9%,8.9,-5.1%
c1csc(-c2nnc(Cc3cccc4ccccc34)o2)c1,0.4%,-5.8%,-1.0,2.7%
CCSCc1nnc(SCC(=O)Nc2nc3ccccc3s2)n1C,28.9%,-8.3%,9.0,?
Cc1ccccc1Cn1ccc(=NCc2ccccc2)cc1,-19.8%,29.6%,2.6,-1.3%
CC(C)Cc1cc(CN2CCC(CO)(Cc3ccccc3)CC2)[nH]n1,14.2%,0.3%,-3.9,0.0%
CCN(CC)CCCN1C(=O)C(O)=C(C(=O)c2sc(C)nc2C)C1c1ccco1 (stereo not given),-11.6%,-4.6%,-0.1,-0.5%
CC1NC(=O)NC1CCCCCC(=O)Nc1ccc(F)c(Cl)c1 (stereo not given),-0.7%,-2.0%,3.7,-1.4%
Clc1ccc(/C=N/Nc2nn[nH]n2)cc1,-2.1%,-1.9%,-5.8,0.8%
Cc1ccc2nc(/C(C#N)=C\c3ccc(Oc4ccc([N+](=O)[O-])cn4)cc3)[nH]c2c1,-21.7%,-9.3%,-12.8,0.0%
COC(=O)c1sccc1NC(=O)Nc1ccc(OC)c(OC)c1,-18.1%,-4.4%,.,0.8%
Cc1ccc(NC(=O)c2ccc(Br)o2)cc1S(=O)(=O)N(C)C,-6.1%,-24.4%,-5.1,1.0%
COC(=O)C1(C)Nc2ccccc2C(=O)N1c1ccccc1C (stereo not given),0.7%,-0.1%,9.5,1.3%
CCN1CCCC1CNc1ncnc2c1[nH]c1ccc(F)cc12 (stereo not given),0.5%,-14.0%,-7.3,-2.6%
Cc1ccc(S(=O)(=O)Nc2cccc(-n3cnnn3)c2)cc1C,0.3%,-0.4%,.,-1.6%
CCOc1ccc(NC(=O)CN(C)c2ccc(S(=O)(=O)N3CCOCC3)cn2)cc1OCC,-0.4%,1.1%,10.8,-1.0%
Cc1ccccc1OCc1nnc(SCC(=O)Nc2ccc3nc(SCC(=O)NC(C)(C)C)sc3c2)n1C,7.6%,5.7%,8.1,-3.3%
CCCC[C@@H]1CNC(=O)C(=O)N1CCCc1cc(OC)c(OC)c(OC)c1,-3.2%,1.1%,6.6,0.0%
CCNc1c(NS(=O)(=O)c2ccc(Br)s2)c(=O)oc2ccccc12,4.8%,-1.2%,.,1.1%
Cc1cc(=S)cc(C)n1CCO,0.1%,-13.7%,6.1,-4.8%
COc1cc(CNc2ccc3[nH]c(=O)[nH]c3c2)cc(Br)c1OCc1ccc(F)cc1,1.4%,2.3%&-8.1%,.,7.0%
CC(C)CNC(=O)COc1ccc2c3c(c(=O)oc2c1)CCC3,1.7%,-3.8%,0.8,1.2%
Cc1ccc(S(=O)(=O)N2CCCC2CNC(=O)C(=O)NCCN2CCOCC2)cc1 (stereo not given),14.7%,.,.,-4.5%
O=C(COC(=O)Cn1cnc2ccccc21)NCCC1=CCCCC1,13.2%,1.2%,-16.0,-0.3%
O=C(O)c1ccc(/C=N/N2CCN(Cc3cccc4ccccc34)CC2)cc1,-1.3%,0.2%,-1.8,0.2%
COc1ccc(-c2cc(CS(=O)(=O)c3ccccc3)on2)cc1,-2.7%,-64.6%,-4.2,-0.5%
CC(=O)c1ccc(-n2cc(-c3ccc(C(C)(C)C)cc3)[n+]3c2SCCC3)cc1,-0.1%,?,8.1,-0.5%
CN(C)C(CNC(=O)c1ccc(-c2ccccc2)cc1)c1ccccc1 (stereo not given),-4.3%,-10.2%,.,-0.2%
Cc1ccc(N(CC(O)COCc2ccco2)S(=O)(=O)c2ccc(C)cc2)cc1 (stereo not given),-0.3%,-6.2%,4.9,10.5%
CCCn1c(N)c(C(=O)COC(=O)COc2ccc(Cl)c(C)c2)c(=O)n(C)c1=O,0.9%,.,.,0.2%
COc1ccccc1N1C(=O)c2ccccc2NC1c1cc(OC)c(OC)c(OC)c1 (stereo not given),-1.7%,-8.6%,.,4.3%
O=C(CCS(=O)(=O)c1ccc(Cl)cc1)Nc1nnc(-c2cccs2)o1,1.0%,.,.,0.1%
COc1ccc(Cn2c(CO)cnc2SCC(=O)Nc2cc(C)on2)cc1,-4.6%,-2.0%,.,1.2%
O=[N+]([O-])c1ccc2c(c1)C(O)n1nc(-c3ccc(Cl)cc3Cl)nc1S2 (stereo not given),?,-8.3%,7.6,-1.3%
CCCn1nc([N+](=O)[O-])c(C(C#N)c2nc3ccccc3o2)c(Cl)c1=O (stereo not given),19.1%,11.8%,-1.0,-0.2%
C[C@@H]1CN([C@@H](C)CO)C(=O)c2cccc(NC(=O)C3CCOCC3)c2O[C@H]1CN(C)S(=O)(=O)c1ccc(Cl)cc1,-11.7%,.,.,2.3%
CC(=O)NC(NC(=S)N1CCCCCC1)C(Cl)(Cl)Cl (stereo not given),19.4%,1.0%,.,-0.7%
C[C@H](NC(=O)c1ccccc1Cl)C(=O)Nc1ccccc1F,-15.2%,6.5%,.,1.7%
CN1/C(=C\C(=O)c2cccnc2)Sc2ccccc21,?,-52.2%,-19.4,?
COCCCNC(=O)CSC1=Nc2ccccc2C2=NC(Cc3c[nH]c4ccccc34)C(=O)N12 (stereo not given),2.3%,0.8%,-5.3,?
CCOc1cc(-c2nnn(CC(=O)N3CCCCC3)n2)ccc1OC,22.2%,-4.3%,.,-1.5%
O=C(COc1ccc(Cl)cc1)NCCCNC(=O)c1cnccn1,-11.5%,5.0%,.,-1.4%
Cc1ccc(N=Cc2ccc(O)cc2O)cc1F,-16.3%,-8.1%,-7.4,?
CCCCOc1ccc(/C=C/C(=O)NCCc2nc3ccccc3[nH]2)cc1,-9.7%,-0.5%,-7.7,?
CN(CC(=O)Nc1ccc(Cl)cc1)C(=O)Cc1c(F)cccc1Cl,24.8%,0.5%,.,6.2%
# Continued:
SMILES,Rango release inh,miR-21 reporter,GLA inh pH 4.5,Rango-impB inh
CN(CCC(=O)Nc1ccc2c(c1)OCO2)Cc1ccccc1,9.6%,-1.5%,0.5,1.1%
CCCCCCOc1ccc(N2C(=O)CC(N3CCN(CCN=CC4C(=O)CC(C)(C)CC4=O)CC3)C2=O)cc1 (stereo not given),-2.3%,-0.4%,-9.9,-2.1%
Cc1cc(F)ccc1NS(=O)(=O)c1cccc2nsnc12,29.4%,1.3%,.,-0.8%
CCOc1ccccc1NC(=O)NC1CCN(CC(=O)Nc2ccc3c(c2)OCCO3)CC1,7.0%,-5.1%,-9.6,0.8%
Cc1nnc(SCCN2CCOCC2)c2nn(-c3ccccc3F)c(C)c12,29.4%,-0.1%,0.6,-3.0%
CC(c1nccs1)N(C)C(=O)CCc1nnc(CCc2ccccc2)o1 (stereo not given),18.1%,1.8%,4.5,3.7%
NC(=O)C1CC(=O)N(c2ccc(OCC(=O)NCc3ccccc3)cc2)C1 (stereo not given),-5.2%,-1.7%,.,-4.2%
C[C@]1(CO)CCC[C@@]2(C)C1CC[C@@H](CO)[C@@H]2CCc1ccoc1 (stereo not given in full),4.0%,8.8%,.,-0.6%
Cc1ccc(S(=O)(=O)N(CC(=O)N/N=C/c2ccco2)Cc2ccccc2)cc1,-23.2%,-2.2%,-7.5,7.6%
O=C(NCCC1CCCCN1S(=O)(=O)c1ccc(F)cc1)C(=O)NCCN1CCOCC1 (stereo not given),3.0%,.,.,3.2%
Cc1nc(SCc2nc3ccc([N+](=O)[O-])cc3[nH]2)c2oc3ccccc3c2n1,11.3%,.,.,-0.6%
CCOC(=O)NC(=O)CSc1ccc(C)cc1C,-1.1%,-4.5%,4.7,-0.3%
O=C(c1cccnc1)N1CCC(Oc2ccc(C(=O)N3CCCCO3)cc2)CC1,-3.1%,-2.2%,-18.2,-4.0%
c1ccc2[nH]c(NC3=NCCC3)nc2c1,-0.6%,-5.2%,-10.0,0.0%
CC(C)Oc1ccccc1NC(=O)CSc1nc2ccccc2c(=O)n1C,-12.7%,22.9%,.,-1.1%
CNC(=O)NC(=S)NC(=O)c1ccccc1Cl,6.5%,3.9%,8.7,-0.5%
Cc1ccc(C)c(CN2C(=O)C3CCCN3c3ccc(S(=O)(=O)N4CCOCC4)cc32)c1 (stereo not given),.,-3.3%,-20.6,.
Cc1ccc(C2c3c(oc4ccccc4c3=O)C(=O)N2CCCN2CCOCC2)o1 (stereo not given),-19.9%,-13.1%,0.1,?
NC(N)=N/N=C/c1ccc(OCc2ccccc2)cc1,10.5%,29.8%,-1.6,0.7%
CCOc1ccc(C(=O)Nc2ccccc2CC)cc1[N+](=O)[O-],-1.3%,-13.6%,1.9,3.1%
CCN1/C(=C2\C(=O)N(C)C(=S)N2c2ccccc2)C=Cc2ccccc21,23.9%,6.6%,1.9,4.9%
COc1ccc(/C=C(\C#N)C(=O)OCC(=O)NC(C)c2ccccc2)cc1 (stereo not given),-11.9%,1.0%,2.9,5.9%
Cc1ccc(C=Nc2ccccc2C(=O)Nc2ccccc2)cc1,-2.6%,-30.3%,-5.6,-0.8%
Cc1cc(NC(=O)Cn2nnc(-c3ccccc3N)n2)no1,-1.6%,-7.3%,-1.2,-2.3%
COc1ccc2c(c1)[nH]c1c(=O)n(CCN3CCOCC3)cnc12,0.2%,-15.1%,1.8,-1.6%
N#C/C(=C(/O)c1ccco1)c1nc2ccccc2[nH]1,-10.9%,-26.0%,-4.4,?
C=CCn1c(-c2csc(-c3ccccc3)n2)n[nH]c1=S,-5.0%,-21.9%,1.7,0.0%
Cc1cccc(C)c1OCc1cc(C(=O)N(C)Cc2nc3ccccc3[nH]2)no1,15.9%,14.2%,.,-1.0%

# Not all compounds are listed; the hit share may differ from the screen's.
